# TSHR ag: qHTS Assay for Agonists of the Thyroid Stimulating Hormone Receptor; HEK293-CNG-TSHR cells (CNG channel as cAMP sensor), membrane potential dye, cAMP; Potency, µM (series often up to 57.1 µM), without a hit: at the highest dose activation, actives largely listed as activators; actives 0.48% (n = 73,000); active = well fitted activation curve of enough size with the parental cells flat; inconclusive = any curve in the parental cells; inactive = parental cells flat and receptor cells flat or falling; also: potency is read from the fitted curve at half-maximal effect; % of control where 0% means no effect; weak receptor curves with flat parental cells got no call and are not listed
# Target sequence (P16473 whole entry, looked up): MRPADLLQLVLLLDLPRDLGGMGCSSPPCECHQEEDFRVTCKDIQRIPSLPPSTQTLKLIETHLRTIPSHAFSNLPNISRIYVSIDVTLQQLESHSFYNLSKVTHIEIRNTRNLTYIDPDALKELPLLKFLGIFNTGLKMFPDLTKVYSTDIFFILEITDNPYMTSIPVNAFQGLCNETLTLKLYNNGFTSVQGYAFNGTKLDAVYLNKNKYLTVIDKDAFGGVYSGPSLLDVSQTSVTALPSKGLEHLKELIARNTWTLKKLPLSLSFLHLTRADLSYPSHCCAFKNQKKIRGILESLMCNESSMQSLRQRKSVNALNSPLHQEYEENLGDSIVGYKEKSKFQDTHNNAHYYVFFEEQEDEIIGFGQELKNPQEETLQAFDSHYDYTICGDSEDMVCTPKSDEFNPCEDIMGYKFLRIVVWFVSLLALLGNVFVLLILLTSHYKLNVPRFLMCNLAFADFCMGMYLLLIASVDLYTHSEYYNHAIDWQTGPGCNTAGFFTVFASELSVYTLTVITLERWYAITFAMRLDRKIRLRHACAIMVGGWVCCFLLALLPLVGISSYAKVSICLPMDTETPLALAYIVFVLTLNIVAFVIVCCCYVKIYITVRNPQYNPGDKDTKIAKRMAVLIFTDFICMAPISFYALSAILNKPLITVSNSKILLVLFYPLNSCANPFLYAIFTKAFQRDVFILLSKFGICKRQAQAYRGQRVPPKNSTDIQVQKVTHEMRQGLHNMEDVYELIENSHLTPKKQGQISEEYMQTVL
#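 cAMP rise detected as CNG-channel membrane depolarization by fluorescent dye (emission 590 nm), 30 min after compound, following 60 min dye loading containing 100 uM RO 20-1724 at room temperature. Cells: TSHR/CNG HEK 293, with parental CNG HEK 293 as control.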
# Resorufin autofl: qHTS Assay for Spectroscopic Profiling in Resorufin Spectral Region | max dye-equivalent concentration, M | Compound fluorescence, resorufin region 547/598 nm, buffer; stronger effect = higher value | AID 588, 2007 | actives 0.04% (n = 59,000); active = above 10 nM dye equivalent; inconclusive = 1 to 10 nM; inactive = 1 nM or less; a few of its hits are not listed in these tables; also: highest value over a series up to 38 µM
#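 Tris 100 mM pH 8.0; compound added, 15 min RT; CCD imager read, ex 547 nm/em 598 nm; signal normalized to resorufin standard curve (six concentrations per plate) as dye-equivalent concentration.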
# A488 fluor: qHTS Assay for Spectroscopic Profiling in A488 Spectral Region | compound autofluorescence, A488 spectral region, dye equivalency; stronger effect = higher value | max dye equivalency, M | actives 0.1% (n = 59,000) | AID 591, 2007; active = above 10 nM dye equivalent; inconclusive = 1 to 10 nM; inactive = 1 nM or less; about half of its hits are not listed in these tables;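 also: highest value over a series up to 38 µM; compound alone in buffer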
#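 Compounds pin-transferred into 100 mM Tris buffer, pH 8.0, incubated 15 min at room temperature, then imaged with 480 nm excitation/540 nm emission filters. Fluorescence converted to Alexa 488 dye-equivalent concentration via an on-plate six-point A488 standard curve.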
# A647 fluor: qHTS Assay for Spectroscopic Profiling in A647 Spectral Region; Compound fluorescence, A647 channel (570/671 nm), Tris buffer; AID 592, 2007; 59,000 tested, under 10 active; max dye-equivalent concentration, M; active means above 1 µM dye equivalent; inconclusive means 0.1 to 1 µM; inactive means 0.1 µM or less;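 also: values scaled relative to a standard on each plate; highest value over a series up to 38 µM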
#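 Each compound's intrinsic fluorescence at 570 nm excitation and 671 nm emission is measured across its concentration series in 100 mM Tris, pH 8.0, after 15 min at room temperature, and reported relative to an A647 curve.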
# AID923: qHTS Assay for Allosteric/Competitive Inhibitors of Caspase-1: Spectroscopic Profiling in AFC Spectral Region. compound fluorescence, AFC spectral region (405/520 nm); almost no hit is shown here. Potency, µM (titrated, usually from 57.5 µM), inactives show top-dose fluorescence increase, usual class: activators. actives 1.1% (n = 75,000). AID 923, 2007; active = well fitted activation curve with a large enough effect; inconclusive = small, poorly fitted or top-dose-only effect;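 also: potency is read from the fitted curve at half-maximal effect; 0% is about no effect; scaled to a free AFC standard on each plate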
#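 Titrations up to 57 uM read every 20 sec for 3 min (405/520 nm) with 50 nM caspase 1 and 5 uM Ac-WEHD-AFC, pH 7.5 HEPES buffer. Fluorescence-vs-time intercept gave baseline, scaled against on-plate AFC standard.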
# Numbers without * were called inactive; i = inactive; ? = inconclusive; nt = no result given; [ ] = dose if it differs, or a comment.
SMILES,TSHR ag,Resorufin autofl,A488 fluor,A647 fluor,AID923
CCCn1c(-c2ccc(F)cc2)nc2c(NC(C)CCCN(CC)CC)nc(C)nc21 (stereo not drawn),?,nt,nt,nt,9.0%
O=c1c2ccccc2nc2sc3ccccc3n12,-4.9%,i,i,5.8e-09,-1.4%
CC(CN(C)Cc1ccccc1)OC(=O)c1cccs1 (stereo not drawn),?,i,i,1.71e-08,2.3%
Cc1ccccc1C(=O)/C=C1\NC(=O)CS1,-2.9%,i,i,1e-09,2.7%
Cc1c(C(=O)NC2CC2)oc2ccc(S(=O)(=O)N3CCCCCC3)cc12,2.3%[11.4 µM],i,i,2.6e-09,0.9%
N#CCCn1ncc2ccccc21,4.0%,i,i,1.94e-08,1.9%
CO/N=C(\C)CCN1CCCc2nc(C)c(C)cc21,3.3%[11.4 µM],nt,nt,nt,7.5%[11.5 µM]
CN(C)c1ccc(-c2cncnc2Nc2ccccc2)cc1,nt,i,i,1.74e-08,0.6%
O=C1c2cccnc2C(=O)N1Cc1ccccc1,16.0%,nt,nt,nt,-0.2%
COC(=O)[C@@]1(Cc2ccc(OC)cc2)[C@H]2c3cc(C(=O)N(C)C)n(CCO)c3C[C@H]2CN1C(=O)c1ccccc1,18.0%,nt,nt,nt,0.9%
COc1cc2nc(C3CC3)n(NC(=O)c3ccc(Cl)cc3)c(=O)c2cc1OC,16.4%,i,i,1e-09,0.0%
Cc1nn(C2CCCCC2)c(N)c1-c1ccccc1,9.3%,nt,nt,nt,2.4%
O=C(Cn1nnc(-c2ccccc2-n2cnnn2)n1)c1ccccc1,-14.8%,i,i,3.4e-09,-0.6%
O=C(Nc1ccc(F)cc1)NC1CCN(Cc2nnnn2Cc2ccco2)CC1,6.5%,i,i,2.67e-08,3.4%
COC(=O)NC(/C(C(=O)OC)=C(\C)NCc1ccccc1)c1ccccc1 (stereo not drawn),3.3%[11.4 µM],nt,nt,nt,-0.9%[11.5 µM]
COC(=O)CNC(=O)[C@@]1(C)C=C[C@@H](Cc2ccccc2)N1C(C)=O,3.8%,nt,nt,nt,0.8%
O=C(CSCc1cccc(F)c1)N1CCN(c2ccccc2)CC1,?,i,i,6.9e-09,0.3%
O=S(=O)(CCn1cccc1)CCn1cccc1,6.1%,i,i,1e-09,2.1%
CCOC(=O)CCc1c(C)c(C#N)c2nc3ccccc3n2c1-n1ccnc1,nt,i,i,6.99e-08,nt
CCCC(=O)Nc1ccccc1NC(=O)C1CCCCC1,17.2%,i,i,1e-09,-1.3%
O=c1cc(CN2CCc3ccccc32)nc2sccn12,6.7%,i,i,1e-09,4.0%
COc1ccc(CCN(Cc2cccs2)S(=O)(=O)c2ccc(-n3cnnn3)cc2)cc1OC,?,i,i,9.4e-09,-1.9%
O=C1N2CN(C(c3ccccc3)c3ccccc3)CN=C2SC1(CO)CO,15.2%,nt,nt,nt,-0.6%
N#CCSc1nnc(CNc2cccc(Cl)c2)o1,-2.5%,i,i,7.8e-09,1.1%
CCN1C(=O)CS/C1=N\c1nccs1,10.9%,nt,nt,nt,0.4%
COCCn1nnnc1C(c1ccc2ncccc2c1)N1CCc2ccccc21 (stereo not drawn),12.5%,i,i,1e-09,2.0%
COCCn1c(=O)[nH]c2cc(C(=O)NCCN3CCN(c4ccc(OC)cc4)CC3)ccc2c1=O,-3.8%,i,i,4.5e-09,1.1%
CCCNS(=O)(=O)c1ccc(CCC(=O)N2CCCCC2)cc1,1.1%,i,i,4.68e-08,-1.3%
Cn1c(=O)c(-c2cccc(C#N)c2)nc2cnc(Oc3ccccc3)nc21,-6.0%,i,i,1.59e-08,18.1%
CCn1c(SCC(=O)NCC2CCCO2)nc2cc(S(=O)(=O)N3CCCCC3)ccc21 (stereo not drawn),1.3%,i,i,1e-09,-0.8%
CC(C)c1ccc(/C(C(=O)O)=C(\O)C(=O)O)cc1,3.2%[11.4 µM],i,i,1.8e-09,-2.1%[11.5 µM]
Cc1cc(C)n(-c2ccc3cccc(NS(C)(=O)=O)c3n2)n1,?,i,i,7e-09,0.6%
N#Cc1nc(N2CCCC2)nc(N2CCCC2)n1,16.8%[11.4 µM],i,i,8.3e-09,0.5%
Cc1ccc(S(=O)(=O)N[C@@H](CCc2ccccc2)CC(=O)C(C)(C)C)cc1,15.6%[11.4 µM],nt,nt,nt,-0.4%[11.5 µM]
CC(=O)c1sc(N2C(=O)c3oc4ccccc4c(=O)c3C2c2ccc(C)o2)nc1C (stereo not drawn),1.8%,nt,nt,nt,0.4%
C=CCn1c(Br)nc2c1c(=O)[nH]c(=O)n2C,-0.4%,i,i,2.1e-09,0.5%
Cc1nn(Cc2ccccc2)c(Cl)c1C(=O)OC1CCOC1=O (stereo not drawn),3.9%,i,i,9.4e-09,-2.3%
O=C(CCNS(=O)(=O)c1cccc2nonc12)NCc1cccs1,-0.7%,i,i,4.4e-09,-1.1%
Cc1cccc(Cc2c(C)nc3c(C(=O)NCc4ccco4)cnn3c2C)c1,?,i,i,3.5e-09,-1.3%
Fc1ccc(-c2nnc(-c3ccc(Cl)cc3)o2)cc1,?,nt,nt,nt,2.3%
CC(=O)/C(C(=N)N1CCN(c2cccc(Cl)c2)CC1)=C(\C)O,11.2%,i,i,6.3e-09,1.6%
CCc1nnc(NC=C2C(=O)OC(C)(C)OC2=O)s1,-1.5%,i,i,1e-09,0.1%
CC(=O)OC[C@@H]1O[C@H](CCO/N=C(\C)CCN2CCCc3nc(C)c(C)cc32)C=C[C@@H]1OC(C)=O,-3.2%[11.4 µM],nt,nt,nt,3.4%[11.5 µM]
O=C(c1cc2ccccc2oc1=O)N1CCN(CCc2ccccc2)CC1,24.9%,nt,nt,nt,12.2%
CC(C)(C)NC(=O)CSc1nnc(-c2ccco2)n1Cc1ccco1,7.6%,i,i,3.21e-08,-0.3%
Cn1cnc([N+](=O)[O-])c1Sc1nc(N)nc2c1ncn2Cc1ccccc1,6.3%[11.4 µM],i,i,4.15e-08,-2.6%[11.5 µM]
CC1(C)CC(NC(=O)c2coc(=O)c(Br)c2)CC(C)(C)N1,-15.0%,i,i,4.54e-08,6.5%
Cc1ccc(C)c(N2CCN(C(=O)C3CCCN(S(=O)(=O)c4cnc[nH]4)C3)CC2)c1 (stereo not drawn),-1.1%,nt,nt,nt,1.5%
CCOC(=O)N1CCC(NC(=O)CCC(=O)N2CCOc3ccccc32)CC1,-2.6%,i,i,1e-09,1.8%
Cc1occc1-c1nnc(SCC(=O)Nc2ccccc2)n1Cc1ccccc1,?,i,i,1.8e-09,0.3%
Cc1ccc2[nH]c(=O)c(C(c3nnnn3C3CCCC3)N(Cc3cccnc3)Cc3ccco3)cc2c1 (stereo not drawn),?,i,i,3.6e-08,4.1%
CCOc1ccccc1-n1c(SCC(N)=O)nnc1-c1ccccc1,6.8%,i,i,1e-09,0.8%
COc1cccc(CNC(=O)C2CCCN(S(=O)(=O)c3c(C)n[nH]c3C)C2)c1 (stereo not drawn),-5.3%,i,i,7.4e-09,0.0%
Nc1nnc(SCC(=O)N2CCN(c3ccccc3)CC2)n1-c1ccccc1,-1.4%,i,i,1e-09,1.0%
CN[C@H]1[C@@H](O[C@@H]2[C@H](O[C@@H]3[C@@H](O)[C@@H](O)[C@@H](N=C(N)N)[C@@H](O)[C@@H]3N=C(N)N)O[C@H](C)[C@@]2(O)C=O)O[C@@H](CO)[C@@H](O)[C@H]1O,-2.4%[25.6 µM],i,i,1e-09,10.6%[25.7 µM]
CN1CCN(c2ccc(NC(=O)COc3ccc(Cl)cc3Cl)cc2)CC1,?,i,i,1e-09,-0.2%
CCOC(=O)N1CCN(C(=O)c2ccc(Cl)c(S(=O)(=O)N3CCOCC3)c2)CC1,1.0%,i,i,2.69e-08,0.3%
COc1ccc(-c2nsc3c(N4CCN(C(=O)c5ccco5)CC4)ncnc23)cc1,?,i,i,1.02e-08,1.6%
O=S1(=O)NC(=NCc2ccco2)c2ccccc21,1.4%,i,i,1e-09,0.2%
Cc1c(Cl)cccc1NC(=O)C[C@H]1Sc2ccccc2NC1=O,-0.2%[11.4 µM],i,i,1e-09,0.6%[11.5 µM]
# (next part)
SMILES,TSHR ag,Resorufin autofl,A488 fluor,A647 fluor,AID923
COc1ccc(S(=O)(=O)Cc2ccc(C(=O)N3CCN(c4ccccc4F)CC3)o2)cc1,27.3%,nt,nt,nt,-2.2%
COc1cc(C2NC(=O)N(C)C3=C2C(=O)CCC3)cc(OC)c1OC (stereo not drawn),-0.4%,nt,nt,nt,1.4%
CC1=NN(C(=O)c2ccncc2)C(=O)[C@@H]1N=Nc1ccc2ccccc2c1,-3.9%[11.4 µM],i,i,1e-09,-0.7%[11.5 µM]
CS(=O)(=O)N(CC(=O)N1CCN(Cc2ccccc2)CC1)C1CCCCC1,1.5%,i,i,1e-09,-2.2%
CC(NC(=O)Nc1ccc(F)cc1F)c1ccncc1 (stereo not drawn),9.6%,i,i,6.21e-08,-0.3%
Cc1ccccc1-c1ccc2ncnc(NCc3cccnc3)c2c1,?,i,i,2.89e-08,-1.8%
O=C(c1ccco1)N1CCC2(CC1)CCN(c1cccc(-c3ccccc3)c1)CC2,11.3%,i,i,3.4e-09,1.8%
COc1ccccc1NC(=O)C1=C(C)Nc2ncnn2C1c1cccs1 (stereo not drawn),nt,i,i,1e-09,2.4%
Cn1c(C(=O)NCCCN2CCN(c3cccc(Cl)c3)CC2)cc2c(=O)n(C)c3ccccc3c21,11.4%,nt,nt,nt,2.2%
CNc1nc(-c2ccoc2)nc2ccccc12,-1.0%,i,i,1e-09,4.9%
CCc1ccc(C2C(C#N)=C(N)SC(N)=C2C#N)s1,23.6%,nt,nt,nt,20.6%
Cc1ccc(NC2=NC(c3ccc(O)cc3)n3c(nc(C)cc3=O)N2)cc1 (stereo not drawn),24.4%,i,i,1.21e-08,-0.2%
O=C(Cn1nnc2ccccc21)C1CC1,-4.4%,i,i,1e-09,-0.7%
O=C(Cc1ccccc1)Nn1cnc2ccccc21,5.1%,i,i,3.36e-08,-0.3%
O=C(Cc1nn[nH]n1)NCCC1=CCCCC1,8.6%,i,i,2.76e-08,-0.6%
CC(c1ccco1)N(C(=O)COc1ccc(Cl)cc1)c1ccccn1 (stereo not drawn),13.3%,i,i,1e-09,0.4%
CCOC(=O)N1CCN(c2ncnc3nc[nH]c23)CC1,-5.8%,nt,nt,nt,-2.4%
Cc1ccccc1-c1nc(NC2CC2)c2ccccc2n1,nt,i,i,2.81e-08,0.2%
Cc1noc(C)c1-c1nccc(N2CCOCC2)n1,?,i,i,3.46e-08,2.7%
Cc1nc(SCC(=O)NCc2ccc3c(c2)OCO3)c(C#N)c2c1CCCC2,20.5%,i,i,4.59e-08,-0.3%
c1cc(C2CCCCC2)ccc1Oc1nc(N2CCOCC2)nc(N2CCOCC2)n1,4.7%[11.4 µM],i,i,1.75e-08,2.5%
OC(c1cccs1)c1nccc2ccccc12 (stereo not drawn),4.4%,i,i,1e-09,-0.4%

# 5 entries drawn at random from the list so far:
SMILES,TSHR ag,Resorufin autofl,A488 fluor,A647 fluor,AID923
OC(c1cccs1)c1nccc2ccccc12 (stereo not drawn),4.4%,i,i,1e-09,-0.4%
Cc1nc(SCC(=O)NCc2ccc3c(c2)OCO3)c(C#N)c2c1CCCC2,20.5%,i,i,4.59e-08,-0.3%
Cc1noc(C)c1-c1nccc(N2CCOCC2)n1,?,i,i,3.46e-08,2.7%
CC(c1ccco1)N(C(=O)COc1ccc(Cl)cc1)c1ccccn1 (stereo not drawn),13.3%,i,i,1e-09,0.4%
Cc1ccccc1-c1nc(NC2CC2)c2ccccc2n1,nt,i,i,2.81e-08,0.2%

# Source: PubChem

# Not all compounds are listed (hit frequency here may not be typical).
